RE007 growth inh: less growth of the S. pombe RE007 Vpr strain; S. pombe RE007 Vpr strain, BacTiter-Glo ATP luminescence, 24 h; control for the full effect not named in the record; Potency, µM (doses to about 92.2 µM), for the others: at the highest dose activity change, negative = less growth; 360,000 compounds, 0.21% hits; AID 651644; active = well fitted falling curve with a large enough effect; inconclusive = small, poorly fitted or top-dose-only effect; inactive = no such curve, though single readings can be large or run the other way;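 further: on the % scale 0 is the no-effect control and ±100 the full control effect; nearly all actives have a fitted effect of over 50% in size; the assay follows cell death caused by Vpr and the record does not say whether a fall means rescue or toxicity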
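Fission yeast RE007 carrying one integrated HIV-1 vpr copy, seeded at OD 0.01 in PMG+AL medium with 23 nL pinned compound. Grown 24 h at 30 degrees; viability read by BacTiter-Glo luminescence after 5 min.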
2A StopGo: lowers the luciferase signal of an FMDV 2A StopGo reporter. 410,000 compounds, 1.2% hits. human cells with a luciferase reporter of 2A StopGo recoding; control for the full effect not named in the record. Potency, µM (doses to about 57.9 µM), without a hit: top-dose signal change, negative = less light; active = well fitted falling curve with a large enough effect; inconclusive = small, poorly fitted or top-dose-only effect; inactive = no such curve, though single readings can be large or run the other way; tested in HEK293T cells; further: on the % scale 0 is the no-effect control and ±100 the full control effect; nearly all actives have a fitted effect of over 45% in size; luciferase light after 4 h
SARS PLpro yeast: SARS-CoV PLP inhibition in yeast | AID 485353 | 330,000 compounds, 0.19% hits | S. cerevisiae expressing SARS-CoV PLpro, growth rescue; control for the full effect not named in the record | Potency, µM (doses to about 32.9 µM), inactives show at the top dose activity, positive = growth rescue; active means well fitted rising curve with a large enough effect; inconclusive means small, poorly fitted or top-dose-only effect; inactive means no such curve, though single readings can be large or run the other way; further: 0% is about no effect; nearly all actives have a fitted effect of over 55% in size; growth read by luminescence after 48 h
Active calls of the source: *; ? = inconclusive; [ ] = another dose, or the depositor's remark. Potency means the concentration at half of the fitted maximal effect. Not all compounds are listed (hit frequency here may not be typical).

SMILES	RE007 growth inh	2A StopGo	SARS PLpro yeast
CCOc1ccc(NC(=S)N(CCc2ccncc2)C(C)C)cc1	6%	6%	6%
CCOC(=O)[C@H]1[C@H]2COc3ccc(OC)cc3[C@H]2N2C(=O)CNC(=O)[C@@]12C	-15%	-19%	3%
COC(=O)[C@]1(C)N[C@H](CN(C)S(=O)(=O)c2ccc(C(F)(F)F)cc2)[C@@H]2C(=O)N(C)C(=O)[C@@H]21	-4%	-16%	-3%
COC(=O)C1=C(c2cccc(OCc3ccccc3)c2)C[C@@H]2CC[C@H]1N2C(=O)NCc1ccc(OC)cc1	11%	-13%	-2%
COc1ccc(C(=O)NCc2cccc(Cl)c2)cc1S(=O)(=O)N1CCOCC1	-13%	25%	-5%
COc1ccc(CNC(=O)CN2CCN(S(=O)(=O)c3c(C)c(C)cc(C)c3C)CC2)cc1OC	17%	?	-10%
O=C(c1ccc2c(=O)n(-c3ccccc3)c(=S)[nH]c2c1)N1CCN(c2ccccc2)CC1	-6%	?	-2%
COC(=O)Cn1c(N)[n+](Cc2ccccc2)c2ccccc21	-3%	1%	-1%
C=CCn1c(SCC(=O)Nc2cc(Cl)ccc2C(=O)O)nc2sc(C)c(C)c2c1=O	31%	-18%	2%
CC(C)(C)c1ccc(CSc2ccc(S(=O)(=O)N3CCOCC3)cn2)cc1	17%	?	-3%
O=C(COC(=O)c1ccccc1O)Nc1cc(S(=O)(=O)N2CCCCCC2)ccc1Cl	-22%	?	-9%
CSc1ccccc1NC(=O)CN(C)C(=O)/C=C/c1ccccc1	-5%	-16%	1%
O=C(NC1CC1)C1CCN(S(=O)(=O)c2ccc(Cl)c([N+](=O)[O-])c2)CC1	0%	?	-1%
COc1ccccc1-c1nnc(SCC(=O)c2c(N)n(C3CC3)c(=O)[nH]c2=O)n1C	-8%	-4%	-3%
COc1cc(NC(=O)CSc2nnc3c(n2)[nH]c2ccc(S(=O)(=O)NC(C)C)cc23)cc(OC)c1OC	2%	5%	-1%
NC(=O)Cn1c(=O)n(CCC(=O)NCCSCc2ccccc2)c(=O)c2ccccc21	9%	-9%	1%
Cc1ccc(CNC(=O)Cn2cnc3c(NCc4ccccc4)ncnc32)o1	-9%	-11%	-15%
COc1cc(NC(=O)Cn2cnc3c(SC)nc(N)nc32)cc(OC)c1OC	-5%	-24%	-1%
Cc1c(NC(=O)COC(=O)c2ccc(O)cc2)c(=O)n(-c2ccccc2)n1C	6%	-4%	14%
O=C(NCC(c1ccco1)N1CCCC1)c1ccc(S(=O)(=O)Nc2ccccc2Cl)cc1 (stereo not given)	4%	?	-13%
COc1ccc(CNC(=O)Cn2cnc3c(NCc4ccccc4)ncnc32)cc1	-9%	-17%	5%
CN(CCC#N)C(=O)COC(=O)c1ccc2c(=O)n3c(nc2c1)CCC3	-10%	4%	2%
CC(C)NC(=O)N(C)C[C@H]1Oc2c(NC(=O)Cc3ccccc3)cccc2C(=O)N([C@H](C)CO)C[C@@H]1C	9%	73%[activator]	-3%
C=CC[C@@H](CC(=O)NCCO)C(=O)N[C@H](C)COC(=O)[C@@H](CC=C)Cc1ccc(F)cc1	-9%	-19%	2%
Cc1ccc(S(=O)(=O)N2CCN(CC(=O)N3CCCC3)CC2)c(C)c1	2%	-2%	-8%

The closing 3 records of the section before lead into the next:
SMILES	RE007 growth inh	2A StopGo	SARS PLpro yeast
CC(C)NC(=O)N(C)C[C@H]1Oc2c(NC(=O)Cc3ccccc3)cccc2C(=O)N([C@H](C)CO)C[C@@H]1C	9%	73%[activator]	-3%
C=CC[C@@H](CC(=O)NCCO)C(=O)N[C@H](C)COC(=O)[C@@H](CC=C)Cc1ccc(F)cc1	-9%	-19%	2%
Cc1ccc(S(=O)(=O)N2CCN(CC(=O)N3CCCC3)CC2)c(C)c1	2%	-2%	-8%
CC(C)(C)OC(=O)N/N=C/c1cccc([N+](=O)[O-])c1	0%	74%[activator]	1%
O=C(CSc1nc2ccccc2c(=O)n1-c1ccccc1F)NC1CCS(=O)(=O)C1 (stereo not given)	4%	-2%	0%
CC(Sc1nnc(COc2ccc(Cl)cc2)n1Cc1ccco1)C(=O)N1CCNC1=O (stereo not given)	17%	-11%	-12%
Cc1cc(C(C)(C)C)c(OC(=O)[C@@H]2OC(c3ccccc3)=C[C@H]2c2ccccc2)c(C(C)(C)C)c1	4%	-23%	-1%
COc1cccc([C@@H]2CC=C(C(=O)O)[C@H](c3ccc(Cl)cc3)N2S(=O)(=O)c2ccc(C)cc2)c1	-7%	-20%	0%
COc1ccccc1NC(=O)C(C)Sc1nnc2ccccn12 (stereo not given)	-13%	-12%	-6%
CC(=O)c1cccc(NC(=O)C(C)OC(=O)c2cccc(S(=O)(=O)N3CCN(C)CC3)c2)c1 (stereo not given)	9%	-3%	3%
CC[C@]12c3[nH]c4cc(-c5ccco5)ccc4c3CCN1C(=O)[C@@H](CC(=O)NCCCn1ccnc1)C[C@@H]2C(=O)N1CCN(C(=O)c2ccco2)CC1	5%	-1%	2%
COc1ccc(S(=O)(=O)N(C)C[C@H]2Oc3c(NS(=O)(=O)c4cn(C)cn4)cccc3C(=O)N([C@H](C)CO)C[C@@H]2C)cc1	15%	-5%	-28%
CC1CN(c2ccc(Cl)nn2)CC(C)O1 (stereo not given)	4%	1%	-3%
CN(C)C(=O)CCc1ccc2c3c([nH]c2c1)[C@]1(CCC2CCCC2)[C@@H](C(=O)N2CCOCC2)C[C@H](CC(=O)NCCCn2ccnc2)C(=O)N1CC3	0%	6%	1%
Cn1ncc([N+](=O)[O-])c1C(=O)Nc1ccc(-c2nc3ccccc3o2)cc1	-13%	16%	0%
CC[C@@]1(C(=O)OC)N[C@H](CN(C)C(=O)Nc2ccc(Cl)cc2)[C@@H]2C(=O)N(C)C(=O)[C@@H]21	-8%	-12%	-1%
Cc1ccc(NC(=O)c2nc[nH]c2C(=O)N2CCc3ccccc3C2)cc1	-1%	-15%	0%
Cc1c(C(=S)NC(=O)C2CC2)c(=O)n(-c2ccccc2)n1C	-7%	-16%	1%
C[C@]12c3[nH]c4ccc(Cl)cc4c3CCN1C(=O)[C@@H](CC(=O)NCc1cccc(C(F)(F)F)c1)C[C@@H]2C(=O)N1CCCCC1	1%	?	2%
Cc1ccc(CNC(=O)CNC(=O)c2ccc(C(C)(C)C)cc2)n1C	-24%	-13%	2%
CC(=O)c1cccc(S(=O)(=O)N2CCn3cccc3C2C)c1 (stereo not given)	1%	17%	-1%
O=C(CCN1CCN(C/C=C/c2ccccc2)CC1)Nc1cccc(F)c1	-5%	?	-3%
CCCc1cc(=O)[nH]c(SCC(=O)NC2CC2)n1	0%	-22%	1%
CCSCc1nc2ccccn2c1Br	-17%	30%	4%
Cc1ccc(S(=O)(=O)N2C[C@@H]3[C@H]4CC[C@H](C4)[C@@H]3[C@@H](C)[C@H]2c2ccco2)cc1	1%	-12%	-46%
COc1ccc(/C=C/C(=O)Nc2ccc3nc4n(c(=O)c3c2)CCCC4)cc1OC	-7%	-6%	-6%
CCN1C(=O)[C@@H]2[C@@H](c3ccc(-c4ccc(C(C)=O)cc4)cc3)N3CCC[C@@]3(C(=O)OC)[C@@H]2C1=O	-5%	-25%	0%
CCOc1ccccc1N1CC(C(=O)N(CC)C2CCS(=O)(=O)C2)CC1=O (stereo not given)	-5%	-7%	-6%

The listing continues:
SMILES	RE007 growth inh	2A StopGo	SARS PLpro yeast
O=C1CCC(C(=O)OCc2nnc(-c3ccc(Br)cc3)o2)=NN1	-1%	7%	-4%
CC(C)NCc1cc(Br)ccc1OCc1ccccc1	-10%	-26%	0%
Cc1ccc2c(c1)[C@@H]1[C@H](CO2)[C@H](c2ccccc2)[C@]2(C)C(=O)N[C@H](C)C(=O)N12	1%	-12%	-5%
C=CCOC(=O)C1C(=O)CC(C)(O)C(C(=O)OCC=C)C1c1ccc(N(C)C)cc1 (stereo not given)	9%	?	2%
CCc1ccc([C@@H]2CC=C(C(=O)O)[C@H](c3ccc(C)cc3)N2S(=O)(=O)c2ccc(C)cc2)cc1	1%	-20%	-9%
O=C(CSc1n[nH]c(=O)n1C1CC1)c1c[nH]c2ccccc12	-3%	-2%	-5%
COc1ccc(-c2c(-c3ccccc3)n(C)c3ccccc23)cc1	13%	-9%	0%
Cc1ccc(S(=O)(=O)N2CCN(Cc3cc4c(cc3Br)OCCO4)CC2)cc1	2%	-26%	4%
CCN(CC)C(=O)Cn1cc(S(=O)(=O)CC(=O)N2CCCCCC2)c2ccccc21	5%	15%	-1%
CN(C(=O)COC(=O)C1CCN(S(=O)(=O)c2cccs2)CC1)c1ccccc1	-6%	-11%	-2%
O=C(c1cc(C2CC2)nn1-c1ccccc1)N1CCN(Cc2ccc(Cl)cc2)CC1	2%	?	-4%
C[C@H]1CN([C@@H](C)CO)C(=O)c2cccc(NC(=O)C3CC3)c2O[C@H]1CN(C)Cc1ccc(C(F)(F)F)cc1	-13%	22%	-3%
COc1ccc(C2=NOC(Cn3nc(-c4ccccc4)cc3C(=O)NCc3ccc(C)cc3)C2)cc1 (stereo not given)	2%	15%	3%
CCN(C(=O)COC(=O)c1ccc(Cl)nc1)C1CCS(=O)(=O)C1 (stereo not given)	11%	-16%	0%
CCN(C[C@H]1N[C@@](Cc2ccccc2)(C(=O)OC)[C@H]2C(=O)N(C)C(=O)[C@@H]12)C(=O)Nc1ccc(C(F)(F)F)cc1	3%	-22%	3%
Nc1c(Cl)cc(-c2cn(CCC(=O)O)c(-c3ccc(Cl)nc3)n2)cc1Cl	1%	-12%	6%
O=C(Cn1ccc(NC(=O)OCc2ccccc2)nc1=O)NCCCn1ccnc1	-15%	-6%	-4%
CC(OC(=O)Cn1cc(C(F)(F)F)ccc1=O)C(=O)NC(C)c1ccc(Cl)cc1Cl (stereo not given)	3%	-14%	-10%
CCC(CO)Oc1cc(NCc2ccc(O)cc2)c2ncn(C(C)C)c2c1 (stereo not given)	-11%	-3%	-2%
CCOc1ccc(S(=O)(=O)NN=C2CCN(C(C)=O)CC2)cc1	-5%	-9%	-2%
CCCn1c(N)c(C(=O)COC(=O)c2cccc(S(=O)(=O)N3CCOCC3)c2)c(=O)[nH]c1=O	11%	-6%	-4%
C/C=C/c1ccc(OCC(=O)NNC(=O)CN(C)S(=O)(=O)c2ccc(C)cc2)c(OC)c1	-2%	-3%	-2%
Cc1ccc(C(=O)CC(SCC(=O)O)c2ccc([N+](=O)[O-])cc2)cc1 (stereo not given)	-23%	12%	0%
Cc1ccc(-n2nnnc2SCC(=O)NCC2(N3CCCCC3)CCCCC2)c(C)c1	-2%	?	3%
O=C1Nc2c(Br)cccc2C1=O	4%	-13%	4%

The results go on:
SMILES	RE007 growth inh	2A StopGo	SARS PLpro yeast
O=C(NCC(c1cccs1)N1CCOCC1)c1ccc(OCc2ccccc2)cc1 (stereo not given)	14%	-23%	-2%
COc1cc(C(=O)Nc2nnc(SC)s2)c([N+](=O)[O-])cc1OC	5%	-9%	1%
Cc1nnc(SCc2ccc(Cl)cc2)nc1/C=C/N(C)C	9%	-1%	-5%
O=C(COC(=O)c1ccc(O)cc1O)NC(=O)NCc1ccccc1	-4%	-29%	-3%
CC(C)(C)CC(=O)Nc1nnc(SCC(=O)Nc2ccccc2F)s1	1%	?	-12%
O=C(OCC(=O)c1ccc[nH]1)c1cncc(Br)c1	1%	7%	1%
CCSc1nnc(NC(=O)C2CSC3(C)CCC(=O)N23)s1 (stereo not given)	-2%	18%	-1%
CCc1cccc(C)c1NC(=O)c1cc(=O)[nH]c2ccc(S(=O)(=O)N3CCOCC3)cc12	-6%	-1%	2%

Filtered by structure, those above with a nitro group on carbon.
SMILES	RE007 growth inh	2A StopGo	SARS PLpro yeast
O=C(NC1CC1)C1CCN(S(=O)(=O)c2ccc(Cl)c([N+](=O)[O-])c2)CC1	0%	?	-1%
CC(C)(C)OC(=O)N/N=C/c1cccc([N+](=O)[O-])c1	0%	74%[activator]	1%
Cn1ncc([N+](=O)[O-])c1C(=O)Nc1ccc(-c2nc3ccccc3o2)cc1	-13%	16%	0%
Cc1ccc(C(=O)CC(SCC(=O)O)c2ccc([N+](=O)[O-])cc2)cc1 (stereo not given)	-23%	12%	0%
COc1cc(C(=O)Nc2nnc(SC)s2)c([N+](=O)[O-])cc1OC	5%	-9%	1%
